Mtb H37Rv – M. tuberculosis H37Rv growth inhibitors, H37Rv strain (AID 1626). M. tuberculosis H37Rv growth inhibition; higher % means a stronger effect. inhibition, % at 10 µM; hits with a dose series show IC50 in µM. actives 0.95% (n = 220,000);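 active = confirmed in a dose series; inconclusive = inhibition above 80% but not taken into the dose series; inactive = below 80% or under 30% at every dose of the series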;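 also: bacteria incubated seven days before Alamar blue readout; 0% = bacteria only wells and 100% = bacteria with antibiotic wells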
YopH PTP inh – YopH tyrosine phosphatase inhibitors, primary screen, biochemical, fluorescence Ex485/Em525; inhibition, %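 (about 10 µM by stock and volumes)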; actives 0.16% (n = 140,000); AID 898, 2007; YopH tyrosine phosphatase [Yersinia enterocolitica];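 active = inhibition of 50% or more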;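 also: controls were vehicle for no effect and minimum signal wells for full effect; inactives centre near -20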
Arbovirus anti – antivirals against arbovirus infection, primary screen, cell-based, full library, 10K replicate subset; arbovirus infection cell-based antiviral screen; inhibition, % at 10 µM; actives 0.37% (n = 200,000); AID 1251, 2008;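 active = inhibition from about 30%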;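 also: bluetongue infection of BSR cells; cell survival read as ATP light after 72 h; 0% = infected wells without compound and 100% = uninfected wells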
RecA splice inh – Mtb RecA intein splicing inhibitors, primary screen, biochemical, fluorescence, HTS | inhibition, %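 (about 9 µM by stock and volumes)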 | actives 0.75% (n = 290,000) | AID 2221, 2009 | cell-free RecA intein splicing; in the data active = inhibition above about 30%; inconclusive = no clear call, values can overlap the other calls;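 also: 0% = vehicle wells and 100% = reference inhibitor control wells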
Target sequence (P9WHJ3 whole entry, looked up, canonical isoform): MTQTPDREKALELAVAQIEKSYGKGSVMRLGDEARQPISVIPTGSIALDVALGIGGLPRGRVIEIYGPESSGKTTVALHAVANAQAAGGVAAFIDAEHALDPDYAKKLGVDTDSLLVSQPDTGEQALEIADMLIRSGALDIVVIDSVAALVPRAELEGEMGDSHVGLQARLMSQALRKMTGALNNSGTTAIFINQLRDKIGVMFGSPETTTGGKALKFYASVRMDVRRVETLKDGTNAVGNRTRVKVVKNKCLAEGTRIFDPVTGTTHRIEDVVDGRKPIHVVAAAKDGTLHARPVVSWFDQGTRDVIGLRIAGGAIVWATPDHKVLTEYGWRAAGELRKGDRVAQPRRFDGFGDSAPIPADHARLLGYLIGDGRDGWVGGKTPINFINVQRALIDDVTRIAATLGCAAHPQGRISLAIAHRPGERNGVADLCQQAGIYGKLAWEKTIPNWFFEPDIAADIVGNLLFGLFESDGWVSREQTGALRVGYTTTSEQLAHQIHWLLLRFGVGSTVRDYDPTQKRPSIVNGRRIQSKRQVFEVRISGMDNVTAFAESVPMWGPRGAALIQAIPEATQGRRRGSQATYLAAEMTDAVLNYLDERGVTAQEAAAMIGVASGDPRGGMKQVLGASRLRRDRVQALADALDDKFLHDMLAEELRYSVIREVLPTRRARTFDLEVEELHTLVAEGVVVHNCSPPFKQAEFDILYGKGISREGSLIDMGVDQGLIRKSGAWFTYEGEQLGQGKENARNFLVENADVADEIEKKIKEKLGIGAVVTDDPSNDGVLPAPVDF
Mtb betalactam – beta-lactam sensitization of Mtb H37Rv, H37Rv | M. tuberculosis H37Rv growth with meropenem, percent inhibition; hits of this screen are not shown here | inhibition, % at 25 µM | actives 0.27% (n = 330,000) | AID 434955, 2010;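 active = about 74% or more and at least 40 points above the plate without the antibiotic, then above 30% in a dose series; inconclusive = first-round hits that could not be retested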;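 also: growth measured after seven days incubation then overnight dye step; 0% = bacteria only wells and 100% = bacteria with antibiotic; twin plates without the antibiotic show which effects depend on it; some results filed as inactive read as strong as hits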
Arbovirus anti repeat – further read-out of Arbovirus anti, marked with its call; inhibition, %; measured here: 10K subset replicate screen; many hits read low in the repeat;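 first of two repeat runs on a subset; 0% = infected and 100% = uninfected wells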
Starred values were filed as active, the others as inactive; ? = inconclusive; / = not tested or not shown. This is a subset; rates above refer to the full screens.

SMILES	Mtb H37Rv	YopH PTP inh	Arbovirus anti	RecA splice inh	Mtb betalactam	others
COc1cc(C(=O)Nc2ccc3c(c2)OCCO3)ccc1OC(F)F	-1%	-39	-1	1.1	-13
CCOc1ccccc1Oc1cn[nH]c1-c1ccc(O)cc1O	/	/	/	-4.2	-1
CCC(CC)C(=O)Nc1cccc(/C(C)=N\NC(=O)c2ccc(C)s2)c1	-6%	-27	-10	1.7	-5
O=C(NC1CC1)c1ccc(CSCc2cccc(F)c2)o1	13%	-24	-2	3.5	2	Arbovirus anti repeat=0
COCCN1CCn2c(nc3cc(NC(=O)c4cccs4)ccc32)C1	0%	-23	4	1.8	1
Cc1nn(Cc2c(Cl)cccc2Cl)c(C)c1NC(=O)Cn1nc([N+](=O)[O-])c(Cl)c1C	31%	-14	-20	1.0	-4
Cc1ccc2c(c1)C1(C(=O)N2C)N2CC3(C)CN1CC(C)(C2)C3=O (stereo not drawn)	-7%	-21	-7	0.0	0	Arbovirus anti repeat=0
CCOC(=O)c1c(NC(=O)c2cc3n(n2)C(C(F)(F)F)CC(c2ccccc2)N3)sc(C)c1C (stereo not drawn)	5%	-19	-8	14	-6
C=CCn1c(N)c(C(=O)NCc2ccco2)sc1=S	3%	-15	-6	0.3	-9
COc1ccc(CNCC(O)COCc2cccs2)cc1 (stereo not drawn)	4%	-14	11	-2.1	0
Cc1cc(C(=O)COC(=O)Cc2n[nH]c(=O)c3ccccc23)c(C)n1-c1cccc(C(F)(F)F)c1	8%	-17	17	5.7	75
NC[C@@]12CCCC1C1CCC2C1 (stereo partly drawn)	-1%	-25	6	-2.4	-12
O=[N+]([O-])c1cccc(-c2noc(-c3ccco3)n2)c1	9%	/	/	-0.7	-2
CCCc1cc(=O)oc2cc(C)cc(OCC(=O)NCc3cccnc3)c12	/	/	/	-5.3	0
N#CC1(NC(=O)COC(=O)c2ccc(Cl)nc2)CCCCC1	/	/	/	1.5	-8
COC(=O)c1sccc1NC(=O)c1csc2c1CCCC2	8%	-6	20	14	64
Cc1ccc(C(=O)CN(C(=O)c2ccc(Cl)c(Cl)c2)N2C(=O)C3CCCCC3C2=O)cc1 (stereo not drawn)	-1%	-4	12	0.4	6
Nc1nonc1-n1nnc(C(=O)N/N=C/c2ccc(OCc3ccccc3)cc2)c1COc1ccc(F)cc1	-7%	/	/	4.9	0
COc1cc(-n2c(-c3ccccc3)n[nH]c2=S)c(OC)cc1Cl	5%	/	-3	-0.7	12
O=C(CSCc1ccccc1)Nc1ccc(F)cc1F	9%	/	6	16	71
CCc1nnc(NC(=O)c2ccc(COc3ccccc3)o2)s1	-8%	-40	-23	-2.3	0
COc1cccc(/C=N/NC(=S)NC2CC3CCC2C3)c1OC (stereo not drawn)	-13%	/	/	1.5	-4
COc1ccc(N(CC(=O)NC(C)(C)C)S(=O)(=O)c2ccccc2)cc1OC	-3%	-22	1	-0.1	5
CC(=O)c1sc(NC(=O)C2CCN(C(=O)c3ccc(F)cc3)CC2)nc1-c1ccccc1	/	/	/	1.3	46
Cc1ccccc1CC1(CO)CCCN(C(=O)CCC(F)(F)F)C1 (stereo not drawn)	/	/	/	-0.8	1
CC(=O)Nc1ccc2nc3c(=O)n(C)c(=O)n(C)c3nc2c1	-6%	/	/	-96	-14
O=C(Nc1ccc(-c2nnc(-c3ccccc3)o2)cc1)c1ccc(Br)o1	-6%	-4	/	1.0	0
C=CCn1cccc(C(=O)Nc2cc(OC)cc(OC)c2)c1=O	2%	/	10	-0.2	3
CCOC(=O)C1CCCN(S(=O)(=O)c2c(C(=O)N3CCCCC3)c(C)n(C)c2C)C1 (stereo not drawn)	/	/	/	-2.6	-2
CC1(C)Cc2c(ccc3ccccc23)C(=O)N1	3%	-8	9	-0.6	-5
CC1=Nc2ccccc2N=C(NC(=O)c2ccccc2)C1c1ccccc1 (stereo not drawn)	-1%	/	4	3.6	-5
Nc1c(-c2ccccc2)cnc2cc(-c3ccccc3)nn12	4%	/	-9	1.6	/
C/C(=N\NC(=O)CN1CCN(S(=O)(=O)c2ccc(C)cc2)CC1)c1ccc(O)cc1	-8%	/	/	-0.4	4
CC(=O)NC(CC(=O)N(Cc1ccccc1)c1cccc(C)c1)c1ccccc1 (stereo not drawn)	/	/	/	3.0	9
CC(Sc1nc(-c2ccccc2)cc(C(F)(F)F)n1)C(=O)O (stereo not drawn)	-1%	/	-2	2.0	-8
COc1cccc(CNC(=O)Cn2cc3c(n2)CCCC3)c1	0%	-33	5	2.0	0	Arbovirus anti repeat=6
CC(=O)c1ccccc1OCCOCCOCCOc1ccccc1C(C)=O	7%	/	1	-2.2	-2
CC(C)(C)NC(=S)NNC(=O)c1ccc2ncccc2c1	7%	/	5	/	8
CCCn1c(NCc2cccs2)nc2ccccc21	1%	-14	9	-1.7	-3
COc1ccc2ccccc2c1CN1CCN(C(=O)c2ccco2)CC1	/	/	/	5.7	-4
O=C(CCN1CCN(c2ccccc2)CC1)Nc1ccc2c(c1)OCO2	0%	-30	-6	-1.4	2	Arbovirus anti repeat=-8
CCOC(=O)N1CCN(C(=O)CNS(=O)(=O)c2cccs2)CC1	-10%	-46	1	1.9	-6	Arbovirus anti repeat=2
CCOc1ccccc1CN1CCNC(=O)C1CC(=O)NCc1nccn1CC (stereo not drawn)	/	/	/	-4.7	-9
O=S1(=O)CCN(Cc2ccccc2Cl)CC1	-1%	-28	9	-0.4	-2
Cc1ccc(C)c(OCc2nnc(NC(=O)c3ccc4c(c3)OCO4)s2)c1	-9%	/	/	0.2	-2
Cc1cc(C(=O)COC(=O)CC2Sc3ccccc3NC2=O)c(C)n1-c1cccc(C(F)(F)F)c1 (stereo not drawn)	8%	-19	-1	4.8	7
Cc1ccc2cc3cc(C(=O)NC4CC4)oc3nc2c1	/	/	/	-4.5	-4
Cc1cc(-c2nsc(=O)o2)c(S(C)(=O)=O)s1	/	-23	-1	-4.1	?
CC(C)(C)C(=O)Nc1cc2nn(-c3ccccc3)nc2cc1Cl	-12%	-49	4	/	/
CCN(CC)C(=O)c1n[nH]c(=O)c2ccccc12	-14%	-9	12	-1.4	-4
Cc1ccc(C(=O)N2CCNC(=O)C2CC(=O)Nc2ccccc2)cc1 (stereo not drawn)	/	/	/	-1.4	-6
Cc1ccc(C)c(NC(=O)CN(C)C(=O)c2oc3c(Cl)cccc3c2C)c1	/	/	/	1.9	-4
COc1cc([N+](=O)[O-])cc(/C=C2/SC(=S)N(Cc3ccccc3)C2=O)c1O	/	/	/	9.4	11
CN(C(=O)c1ccco1)c1nc(CC(=O)Nc2ccccc2)cs1	-4%	-26	-6	2.0	-2
Cc1cc(Cl)ccc1Oc1ncc(CN2CCN(c3ccccc3)CC2)s1	16%	-35	-4	9.7	15
CSc1nc2ccc(NS(=O)(=O)c3ccc(Cl)s3)cc2s1	6%	-33	6	4.5	-8
COc1ccc(NC(=O)N(CCO)Cc2cc3c(C)cc(C)cc3[nH]c2=O)cc1	-1%	-29	6	-1.0	3
CCCOc1ccc(N2C(=O)CC(SC(=N)N3N=C(c4ccccc4)CC3c3ccccc3)C2=O)cc1 (stereo not drawn)	76%	/	1	2.5	88
COc1ccc(N(C(=O)c2cnccn2)C(C(=O)NCc2ccccc2)c2ccc(O)cc2)cc1 (stereo not drawn)	/	/	/	-2.1	2
COc1ccc(-c2csc(NC(=O)CSc3nc(SC)ns3)n2)cc1	?	-20	18	-0.5	-1

The list continues.
SMILES	Mtb H37Rv	YopH PTP inh	Arbovirus anti	RecA splice inh	Mtb betalactam	others
Cc1cc(NC(=O)CSc2nnc(Cc3ccccc3)o2)no1	-9%	-27	2	-0.8	3
Cn1c(SCc2ccc(C#N)cc2)nnc1-c1cccc(Cl)c1	0%	-29	4	-4.4	1
COc1ccccc1NC(=O)C1CCN(S(=O)(=O)c2ccc3c(c2)CC(C)N3C(C)=O)CC1 (stereo not drawn)	/	/	/	0.2	4
Cc1cccc(-n2cc(CN3CCN(Cc4nccn4C)CC3)c(-c3cccc(F)c3)n2)c1	27%	/	-6	4.4	15
COC(=O)c1c(NC(=O)CSc2nnnn2-c2ccccc2)sc2c1CCCC2	0%	-19	-9	3.5	7
C/C(=C\c1ccccc1)C(=O)n1nnc2ccccc21	2%	-22	1	/	-15
C=CCOc1c(Br)cc(/C=C2/NC(=S)N(C(C)=O)C2=O)cc1OC	10%	/	6	-1.6	5
COc1ccc(-c2nc(NC(=O)CSCCO)sc2C)cc1	-3%	/	-3	-2.3	0
CC(NC(=O)Nc1cccc(Cl)c1)C(c1cccs1)N1CCCC1 (stereo not drawn)	-7%	-10	-3	2.0	-5
O=C(COC(=O)Cn1cnc2ccccc21)Nc1cc(S(=O)(=O)N2CCOCC2)ccc1Cl	3%	/	/	0.9	1
CCCSc1nc2ccsc2c(=O)n1CC	8%	/	0	2.0	8
CCOc1ccc(N2CC(C(=O)N3CCN(c4ccccn4)CC3)CC2=O)cc1 (stereo not drawn)	/	/	/	10	-4
CCC1=C(OC(=O)N(CC)CC)N2C(=O)OC(=NCC(=O)OC)[C@]2(Cc2ccccc2)[C@H]2C1=CC[C@H]1C(=O)N(C)C(=O)[C@H]12	-12%	/	/	-0.7	-8
c1ccc(Cn2cc(CNc3ccccc3)nn2)cc1	6%	/	/	2.7	-14
Cc1ccc(/C=C2\SC(=S)N(Cc3ccccc3)C2=O)o1	-7%	-33	-4	/	-2

Arranged by molar mass (descending): part of the list above
SMILES	Mtb H37Rv	YopH PTP inh	Arbovirus anti	RecA splice inh	Mtb betalactam	others
CCC1=C(OC(=O)N(CC)CC)N2C(=O)OC(=NCC(=O)OC)[C@]2(Cc2ccccc2)[C@H]2C1=CC[C@H]1C(=O)N(C)C(=O)[C@H]12	-12%	/	/	-0.7	-8
CCCOc1ccc(N2C(=O)CC(SC(=N)N3N=C(c4ccccc4)CC3c3ccccc3)C2=O)cc1 (stereo not drawn)	76%	/	1	2.5	88
O=C(COC(=O)Cn1cnc2ccccc21)Nc1cc(S(=O)(=O)N2CCOCC2)ccc1Cl	3%	/	/	0.9	1
COc1ccc(N(C(=O)c2cnccn2)C(C(=O)NCc2ccccc2)c2ccc(O)cc2)cc1 (stereo not drawn)	/	/	/	-2.1	2
Cc1cccc(-n2cc(CN3CCN(Cc4nccn4C)CC3)c(-c3cccc(F)c3)n2)c1	27%	/	-6	4.4	15
COC(=O)c1c(NC(=O)CSc2nnnn2-c2ccccc2)sc2c1CCCC2	0%	-19	-9	3.5	7
C=CCOc1c(Br)cc(/C=C2/NC(=S)N(C(C)=O)C2=O)cc1OC	10%	/	6	-1.6	5
CCOc1ccc(N2CC(C(=O)N3CCN(c4ccccn4)CC3)CC2=O)cc1 (stereo not drawn)	/	/	/	10	-4
CC(NC(=O)Nc1cccc(Cl)c1)C(c1cccs1)N1CCCC1 (stereo not drawn)	-7%	-10	-3	2.0	-5
Cn1c(SCc2ccc(C#N)cc2)nnc1-c1cccc(Cl)c1	0%	-29	4	-4.4	1
COc1ccc(-c2nc(NC(=O)CSCCO)sc2C)cc1	-3%	/	-3	-2.3	0
Cc1cc(NC(=O)CSc2nnc(Cc3ccccc3)o2)no1	-9%	-27	2	-0.8	3
Cc1ccc(/C=C2\SC(=S)N(Cc3ccccc3)C2=O)o1	-7%	-33	-4	/	-2
c1ccc(Cn2cc(CNc3ccccc3)nn2)cc1	6%	/	/	2.7	-14
C/C(=C\c1ccccc1)C(=O)n1nnc2ccccc21	2%	-22	1	/	-15

Additional results follow.
SMILES	Mtb H37Rv	YopH PTP inh	Arbovirus anti	RecA splice inh	Mtb betalactam	others
Cc1ccc(S(=O)(=O)NNC2CC(=O)N(c3ccc(Br)cc3)C2=O)cc1 (stereo not drawn)	4%	/	-5	-2.3	2
O=C(COc1ccc(F)cc1Cl)N(Cc1nnc(-c2ccccc2Cl)o1)C1CC1	/	/	/	3.7	6
COC(C(=O)Nc1ccnn1C1CCN(Cc2ccc(C)s2)CC1)c1ccccc1 (stereo not drawn)	/	/	/	0.8	0
NC(=NC(=O)c1ccc(OC(F)(F)F)cc1)c1ccc(C(F)(F)F)cn1	-9%	/	/	0.4	3
COc1ccc(S(=O)(=O)NCC(c2ccc3c(c2)OCO3)N2CCOCC2)cc1C (stereo not drawn)	/	/	/	-1.5	-6
CCOc1ccc(NC(=O)c2ccc3snnc3c2)cc1	1%	34	-4	0.5	1
O=C(OCc1cnc(Cl)s1)c1cccc(Cl)c1Cl	-1%	-26	-12	5.7	-6
O=C(Cn1c(-c2ccccc2)c[n+]2ccsc12)c1ccc([N+](=O)[O-])cc1	-1%	/	-6	0.3	56
O=C(O)CNC(=O)c1ccccc1NC(=O)c1ccco1	-7%	-58	0	/	1

Source: PubChem
